HSD17B inhib: qHTS Assay for Inhibitors of HSD17B4, hydroxysteroid (17-beta) dehydrogenase 4; recombinant HSD17B10, NADH fluorescence kinetic; many of its hits are not listed in these tables; Potency, µM (series often up to 57.1 µM), for inactives: at the top dose activity change, negative = inhibition, most hits filed as inhibitors; 75,000 compounds, 7.6% hits; active means well fitted inhibition curve with a large enough effect; inconclusive means small, poorly fitted or top-dose-only effect; inactive means no such curve, though single readings can be large or run the other way;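 further: the protocol describes HADH2 (HSD17B10) and not the HSD17B4 of the title; nearly all actives have a fitted effect of over 70% in size; most hits overshoot -100% by far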
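20 nM HADH2, pH 9.0 Tris/Tween; cpd preinc 15 min RT; start w/ 1 mM NAD+ + 90 uM b-hydroxybutyryl-CoA; kinetic fluor ex360/em450 q30s x 4 min; delta last-first.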
Numbers without * were called inactive; ? = inconclusive; & = joins results of further samples; [ ] = dose if it differs, or a comment. On the % scale 0 is the no-effect control and ±100 the full control effect; potency means the concentration at half of the fitted maximal effect. An excerpt; count on the stated rates, not on these rows.

The opening 4 entries, to show the layout:
compound	HSD17B inhib
O=C(NCCc1ccccc1)c1cnn2c(C(F)F)cc(C3CC3)nc12	?
CCOc1ccc(N(CC(=O)NC2CCCC2)S(=O)(=O)c2c(C)noc2C)cc1	0.0%
Cc1ccc(C(C)C)c(OCc2ccc(-c3nnco3)cc2)c1	-24.8%
CS(C)(=O)=O	5.3%

This part in full, from the first entry:
compound	HSD17B inhib
O=C(NCCc1ccccc1)c1cnn2c(C(F)F)cc(C3CC3)nc12	?
CCOc1ccc(N(CC(=O)NC2CCCC2)S(=O)(=O)c2c(C)noc2C)cc1	0.0%
Cc1ccc(C(C)C)c(OCc2ccc(-c3nnco3)cc2)c1	-24.8%
CS(C)(=O)=O	5.3%
c1ccc2c(c1)Cc1cc3cc4c(cc3nc1-2)OCO4	25.1µM*
CCC(=O)c1ccc(N2CCN(C(=O)c3ccc(Br)cc3)CC2)c(F)c1	-4.0%
O=C(O)CN(CCN(CC(=O)O)CC(=O)O)CCN(CC(=O)O)CC(=O)O	6.1%[25.6 µM]
O=C(Cn1cnc2c(nnn2-c2ccc(F)cc2)c1=O)NCc1ccco1	-2.6%
O=C(O)CSCCc1ccccn1	5.5%
O=C(Nc1ccc2c(c1)nc1n2CCOC1)c1ccco1	-7.6%
COc1ccc(OCC(=O)Nc2ccc(N3CCOCC3)c(Cl)c2)cc1	2.2%
Cc1ccc(NC(=O)Nc2ccc(F)cc2)nc1	-11.5%
O=C(COC(=O)c1c2c(nc3ccccc13)CCCC2)Nc1ccc2c(c1)OCO2	-2.9%
CCOC(=O)c1ccc(NC(=O)Oc2ccccc2)cc1	-1.2%
COc1ccc2[nH]c(=O)c(C(c3nnnn3C3CCCC3)N(C)C3CCCCC3)cc2c1 (stereo not drawn)	?
CC(=NCCN1CCNCC1)C1=C(O)CC(C)(C)CC1=O	13.0%
CCOC(=O)C(C)Sc1nnc2n1C(C)(C)Cc1ccccc1-2 (stereo not drawn)	0.9%
CCN(CC)c1nc(Nc2ccc(Cl)cc2)nc(OCC#N)n1	3.3%
COc1ccc(-c2cc(C(F)(F)F)nc(N3CCN(c4ccccc4)CC3)n2)cc1OC	1.4%
CC(c1cccnc1)N(C(=O)Nc1ccccc1)C1CCCCC1 (stereo not drawn)	3.4%
CCOCCCNC(=O)C(c1ccc(Cl)cc1)N1CCN(c2ccccc2)CC1 (stereo not drawn)	10.8%
NC(=O)CSc1nnc(CNc2cccc(Cl)c2)n1CCc1ccccc1	-0.5%
CC(C)Oc1ccc(/C(O)=C2/C(=O)C(=O)N(CCCN3CCOCC3)C2c2ccncc2)cc1 (stereo not drawn)	-2.3%
CCCCNc1nc(C)nc2c1nc(-c1ccccc1)n2CCN1CCCCC1	31.6µM*
Cc1ccccc1-n1nc(C)c2cc(C(=O)N3CCN(S(=O)(=O)c4ccccc4)CC3)sc21	?
COc1ccccc1S(=O)(=O)Cc1ccc(C(=O)N2CCCC2)o1	5.4%
CN(C)C(=O)C1(c2ccccc2)CCN(S(=O)(=O)c2ccccc2)CC1	2.5%
COc1cc(CN2CCC(C(=O)N3CCN(c4ccccc4F)CC3)CC2)ccc1O	4.0%
CS(=O)(=O)Nc1cccc(-c2cc(NCc3cccs3)ncn2)c1	-4.3%
Cc1cccc(N(Cc2ccccc2F)S(C)(=O)=O)c1	-7.7%

A few values from above:
COc1ccc(-c2cc(C(F)(F)F)nc(N3CCN(c4ccccc4)CC3)n2)cc1OC in HSD17B inhib reads 1.4%
CCOCCCNC(=O)C(c1ccc(Cl)cc1)N1CCN(c2ccccc2)CC1 (stereo not drawn) in HSD17B inhib reads 10.8%
NC(=O)CSc1nnc(CNc2cccc(Cl)c2)n1CCc1ccccc1 in HSD17B inhib reads -0.5%

Later entries
compound	HSD17B inhib
CC(C)CCNC(=O)NC(=O)COc1ncnc2sccc12	6.2%
O=C(c1ccco1)N1CCN=C1SCc1ccc(F)cc1	3.2%
COc1cccc(-c2nnc(SCC(=O)Nc3ccc(S(N)(=O)=O)cc3)n2C)c1	5.3%
COc1ccc(OC)c(C2CC(=O)C3=C(C2)NC(=O)CC3c2ccc(O)c(OC)c2)c1 (stereo not drawn)	-4.0%
CCCCNC(=O)NS(=O)(=O)c1ccc(C(=O)OC)o1	-14.1%
CC(C)(C)N1C(=O)[C@H]2[C@@H]3[C@H](O)C=CC(=O)[C@H]3CC[C@H]2C1=O	2.2%[11.4 µM]
COC(=O)C(CC(C)C)NC(=O)c1ccc(F)cc1 (stereo not drawn)	-2.9%
COc1ccc(NC2=Nc3ccccc3CC2)cc1	6.9%
O=C(C1CCN(S(=O)(=O)c2cccc3cccnc23)CC1)N1CCN(Cc2ccccc2)CC1	5.1%
C=CCc1cc(C(=O)N2CCCCC2)ccc1O	4.1%
CCOC(=O)N1CCN(C(=O)c2sc3nc(-c4ccc(F)cc4)cn3c2C)CC1	7.3%
COc1ccc(OCc2nnc(SCC(N)=O)n2-c2ccccc2OC)cc1	13.4%
COc1cc(-c2nnc(SCC(=O)c3ccc(C)cc3)o2)cc(OC)c1OC	-5.3%
COc1ccc(-c2nc(C#N)c(NCC3CCCO3)o2)cc1OC (stereo not drawn)	31.6µM*
CC(=O)OCC1OC(C#CC(C)(C)C)C=CC1OC(C)=O (stereo not drawn)	5.7%&-4.9%[11.4 µM]
CC(=O)c1ccc(OCC(O)CN2CCN(CCO)CC2)cc1 (stereo not drawn)	4.4%
O=C(CSc1nnc(-c2ccccc2Br)o1)N1CCc2ccccc2C1	-13.0%
Cc1ccc(NC(=O)Cn2cccc2)c(Br)c1	5.2%
CCOC(=O)c1nn(-c2cc(C(=O)OC)cc(C(=O)OC)c2)cc1O	4.5%
O=C(Oc1ccccc1)N1CCC2(CCCN(c3ccc(-c4ccccc4)cc3)C2)CC1	?
CCOC(=O)N1CCN(C(=O)c2ccc(NS(C)(=O)=O)cc2)CC1	5.5%
COC(=O)C1C(=O)C2=C(CC1C)NC(C)=C(C(=O)OCc1ccc(OC)cc1)C2c1ccc(C)o1 (stereo not drawn)	-1.4%
Cn1c(=O)oc2cc(S(=O)(=O)NCCC(=O)NC3CCCC3)ccc21	2.3%
COc1ccc(OCc2nnc3n2N=C(c2ccc(OC)cc2)CS3)cc1	-1.6%
CCOC(=O)C1CCN(c2c(NC3CCCCCCC3)c(=O)c2=O)CC1	5.2%
Cc1c(C)c2ccc(OCC(=O)N(C)C)c(C)c2oc1=O	31.6µM*
Cc1cc(NC(=O)C2CC(=O)OC2c2ccccc2)no1 (stereo not drawn)	10.1%
COc1ccc(-c2nc(C#N)c(N3CCN(c4ccccc4)CC3)o2)cc1	31.6µM*
C=CCCCCCCCCCCCc1ccco1	-15.5%
Cc1cc(C)n(C(=O)CNc2cccc(Cl)c2C)n1	5.3%

3 of the compounds above, field by field:
Cc1c(C)c2ccc(OCC(=O)N(C)C)c(C)c2oc1=O
  HSD17B inhib = 31.6µM*

Cc1cc(NC(=O)C2CC(=O)OC2c2ccccc2)no1 (stereo not drawn)
  HSD17B inhib = 10.1%

COc1ccc(-c2nc(C#N)c(N3CCN(c4ccccc4)CC3)o2)cc1
  HSD17B inhib = 31.6µM*

Additional structures:
compound	HSD17B inhib
O=C(Cc1c(C(=O)O)[nH]c2ccccc12)NCCN1CCN(c2ccccc2F)CC1	-4.0%
NC(C(=O)O)C(O)C(=O)O (stereo not drawn)	5.2%
O=C(O)CSC(NC(=O)c1cccnc1)(C(F)(F)F)C(F)(F)F	12.5%
Cc1ccc(CN(C)CCc2ccccn2)cc1	1.1%
O=C(CSc1nnc2sc3ccccc3n12)N1CCN(c2ccccc2)CC1	10.2%
Cc1ccc(Nc2nc(N)nc(CN3CCN(Cc4ccc5c(c4)OCO5)CC3)n2)c(C)c1	6.3%
Cc1nc2cnc(N3CCN(C)CC3)nc2n(C[C@H]2CCCO2)c1=O	31.6µM*
COC(=O)[C@@]1(Cc2ccc(OC)cc2)[C@H]2c3cc(C(=O)N(C)C)n(Cc4cc(C)n(C)n4)c3C[C@H]2CN1C(=O)c1ccccc1	2.9%
O=C(Nc1ccc(N2CCN(C(=O)c3ccco3)CC2)c(Cl)c1)c1cccs1	?
Cc1ccc(/C(O)=C2\C(=O)C(=O)N(CCN(C)C)C2c2ccccc2F)cc1 (stereo not drawn)	-2.8%
N[C@H](CO)C(=O)NCC(=O)O	2.8%[11.4 µM]
O=C(Nc1ccc(F)cc1F)N1CCCCC1c1cccnc1 (stereo not drawn)	-0.1%
O=C(Nc1ccc(Br)c(Cl)c1)c1ccco1	2.9%
COc1ccc(-c2c(C)n([O-])c3c([n+]2=O)CCC3)cc1OC	3.2%
CCOCCCNC(=O)c1[nH]c(C)c(C(C)=O)c1C	11.2%

Other compounds:
Structure	HSD17B inhib
N#Cc1c(N)nc2c(c1-c1ccncc1)CCCCCC2	-5.6%
CCOc1ccc(C(=O)OCn2nnc3ccccc3c2=O)cc1OC	13.8%
CC(=O)OC[C@@H]1O[C@H](C/C=N\O[C@@H]2O[C@H](COC(C)=O)[C@@H](OC(C)=O)[C@H](OC(C)=O)[C@H]2OC(C)=O)C=C[C@@H]1OC(C)=O	9.0%[11.4 µM]
O=C(c1ccncc1)N1CCC2(CCCN(Cc3nccs3)C2)CC1	0.1%
CCC(C)c1ccc2oc(-c3ccc(NC(=O)c4ncn[nH]4)cc3)nc2c1 (stereo not drawn)	25.1µM*
CCN1C(=O)c2cccc3c(NC(=O)c4ccc(S(=O)(=O)N5CCOCC5)cc4)ccc1c23	-6.8%
CC(C)c1cc(CN(C)C)c(O)c(C(C)(C)C)c1	5.1%[11.4 µM]
CCOc1cc(-c2nc3cc(C)ccn3c2NCC2CCCO2)ccc1O (stereo not drawn)	?
COc1ccc(OC)c2c(C)cc(NCCN3CCOCC3)nc12	25.1µM*
FC(F)(F)c1ccccc1-c1cncnc1NCc1cccs1	-0.4%
O=C(O)c1cc(-c2ccc3cc4c(cc3c2)OCO4)nc2ccccc12	-26.4%[11.4 µM]
O=S(=O)(c1cccs1)N1CCN(CC(O)COc2cc(Cl)ccc2Cl)CC1 (stereo not drawn)	5.9%
CCSc1nnc(NC(=O)c2ccccn2)s1	4.7%
O=C(NCC12CC3CC(CC(C3)C1)C2)c1cc2n(n1)C(C(F)(F)F)CC(c1ccco1)N2 (stereo not drawn)	-19.3%
CCOC(=O)N1CCN(C(=O)CSCC(=O)Nc2nc(-c3ccc(OC)cc3)cs2)CC1	-16.4%
C[C@@H]1CCc2cc(F)cc3c(=O)c(C(=O)O)cn1c23	-4.0%[25.6 µM]
Cc1ncc(CN=Cc2ccc(Cl)cc2)c(N)n1	2.5%[11.4 µM]
COC(=O)c1ccc(NC(=O)C2CCCO2)cc1 (stereo not drawn)	11.5%
CCOc1cc(C(=O)OCC(=O)NCc2ccco2)cc(OCC)c1OCC	-24.0%
Cc1ccc2nc(NC(=O)CCNS(=O)(=O)c3cccs3)sc2c1	13.9%
CCOC(=O)Cn1cc(C(=O)c2ccco2)c2ccccc21	0.5%
OC[C@@H]1O[C@H](n2cnc3c(/C=C(\O)c4ccccc4)ncnc32)[C@H](O)[C@@H]1O	8.6%[11.4 µM]
COc1cccc(C(=O)N2CCN(C3CCC(c4ccccc4)CC3)CC2)c1 (stereo not drawn)	-4.6%
CN1CCN(c2oc(-c3cccs3)nc2S(=O)(=O)c2ccccc2)CC1	-0.9%
CCOc1ccc(N2C(=O)c3cccnc3C2=O)cc1	3.0%
CC(=O)OC[C@@H]1O[C@@H](O/N=C2/C[C@@H](O)[C@@H](O)[C@@H]3[C@@H]4C(=O)N(Cc5ccc6c(c5)OCO6)C(=O)[C@H]4CC[C@H]23)[C@H](OC(C)=O)[C@H](OC(C)=O)[C@@H]1OC(C)=O	-0.5%[11.4 µM]
CC1=CCC2C(=O)N(c3nc(C)cc(C)n3)C(=O)C2C1 (stereo not drawn)	-2.0%
CCOC(=O)c1sc(NC(=O)CSc2ncn(-c3ccccc3)n2)nc1C	-6.3%
O=C(c1ccc(NS(=O)(=O)c2ccccc2)cc1)N1CCN(Cc2ccc3c(c2)OCO3)CC1	8.0%
N#Cc1ccc(NC(=O)CN2C(=O)NC(Cc3ccccc3)C2=O)cc1 (stereo not drawn)	2.1%
O=C(CCC(=O)N1CCN(C2CCCCC2)CC1)Nc1nnc(C(F)(F)F)s1	1.0%
CCOC(=O)C(NC(=O)c1ccccc1)(N1CCCC1=O)C(F)(F)F (stereo not drawn)	6.8%
Cn1c(=O)oc2ccc(C(=O)CSc3nnnn3-c3ccccc3)cc21	4.4%
Cc1cccc(C)c1NC(=O)Cn1nnc(-c2ccc(N3CCOCC3)cc2)n1	?
CC[C@](N)(CCC(=O)O)C(=O)O	5.4%
O=C(c1cc(S(=O)(=O)N2CCCCC2)c(Cl)cc1N1CCOCC1)N1CCOCC1	2.4%
N#C/C(=C\Nc1ccccn1)C(=O)c1ccco1	-0.8%[11.4 µM]
CCOc1ccc(OCC)c(NC(=O)CN(c2ccc(C)cc2)S(=O)(=O)c2c(C)noc2C)c1	5.8%
CCCc1[nH]nc2c1C(c1cccc(OC(=O)c3ccco3)c1)C(C#N)=C(N)O2 (stereo not drawn)	-21.9%
O=C(COc1ccc(S(=O)(=O)NC2CCCC2)cc1)N1CCCCCC1	-8.5%
Cn1c(C(=O)N2CCCc3ccccc32)cc2c(=O)n3ccccc3nc21	?
O=C(NCC1COc2ccccc2O1)C1CCCN(S(=O)(=O)c2cccc3cccnc23)C1 (stereo not drawn)	-0.6%
CS(=O)(=O)Nc1cccc(-c2cncnc2Nc2ccccc2)c1	-0.2%
O=C(CCN1CCN(c2ccccc2F)CC1)c1ccc(Br)cc1	-20.7%

Compound activity deposited in PubChem by National Center for Advancing Translational Sciences (NCATS).
